Methyltransferases – Primary Screen for Target Class Profiling of Small Molecule Inhibitors of Methyltransferases. purified enzyme, MTase-Glo SAH luminescence; stronger effect = lower value. calls only at 40 µM. 25,000 compounds, 3.9% hits; active = -50% or lower on at least one of six enzymes; inconclusive = the cases between; inactive = as a rule above -30% on all six;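 also: enzymes were COMT GAMT GNMT HNMT NNMT and PNMT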
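Each enzyme was assayed with SAM and its substrate. SAH formation detected by MTase-Glo luminescence; single-point 40 uM screen[…].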
Calls only; i = inactive; ? = inconclusive; + = active, no number. % is scaled to controls: 0 for no effect and ±100 for the full control effect.

SMILES	Methyltransferases
Cc1nc(N2CCC(NC(=O)c3sccc3C)CC2)cc(C(F)(F)F)n1	i
CCOC(=O)c1cc2n(n1)CC(C)(C(=O)NCc1ccccc1)N(Cc1ccc(F)cc1)C2=O (configuration not stated)	i
Cn1c(=O)c2ccc(C(=O)NC3CCCC3)cc2n2c(=O)n(CC(=O)Nc3ccc(Cl)cc3)nc12	i
COc1ccc(CCC(=O)N2CCCC(n3cc(-c4nc(-c5ccccc5)no4)nn3)C2)cc1 (configuration not stated)	i
CC(C)OCCCn1c(=O)c2ccccc2n2c(SCc3ccccc3F)nnc12	i
COc1cccc(CSc2nnc3n(Cc4ccccc4)c(=O)c4ccccc4n23)c1	i
O=C(NCc1ccccn1)C1CCN(Cc2cc3n(n2)CCCNC3)CC1	i
O=C(O)c1ccc(CCCc2ccc(OCCc3ccc(F)cc3)cc2)o1	?
CCCn1c(=O)c2ccccc2n2c(=O)n(Cc3ccc(C)cc3)nc12	i
CCOc1ccc(C2CC(=O)Nc3c2c(C)nn3CC(=O)O)c(OCC)c1C (configuration not stated)	i
CCCNC(=O)c1cc2n(n1)CC(C)(C(=O)NCc1ccc(F)cc1)N(C)C2=O (configuration not stated)	i
CCOC(=O)c1cc2n(n1)CC(C)(C(=O)NC1CCCC1)N(c1ccc(C)c(C)c1)C2=O (configuration not stated)	i
C=C1C(=O)O[C@@H]2C[C@@]3(C)CCC[C@H](C)C3=C[C@H]12	i
CCN(C(=O)Cn1c(=O)oc2cc(S(=O)(=O)N3CCCC3)ccc21)c1cccc(C)c1	i
COCCn1c(C)cc(C(=O)N2CCCCCCNC(=O)CC2)c1C	i
CC1=C2CC(=O)C(C)CC/C=C(\C)CC2(O)OC1=O (configuration not stated)	i
CCOc1ccc2ccccc2c1C(=O)N[C@@H]1C(=O)N2[C@@H]1SC(C)(C)[C@@H]2C(=O)O	?
CN(C)C(=O)N1CCC(c2nc(C3CCOC3)n[nH]2)CC1 (configuration not stated)	i
CCOC(=O)C1c2c(OC)ccc3c2C(=CC(C)(C)CO3)CN1C(=O)C1CC1 (configuration not stated)	i
CC1c2cccn2CCN1C(=O)Nc1ccccc1Br (configuration not stated)	i
Nc1nc(OCc2ccccc2)c2[nH]cnc2n1	i
COc1ccc(S(=O)(=O)ON=C2C=C(C)C(=O)C(C)=C2)cc1	?
CN1CCC(N2C[C@@H]3C[C@H]2C(=O)N(CC2CC2)c2ccccc2O3)CC1	+
CCCC1c2ccc(C)n2CCN1C(=O)Nc1cc(Cl)ccc1C (configuration not stated)	i
Cc1ccc(CN2C(=O)c3cc4sccc4n3CC2(C)C(=O)NC2CCCCCC2)cc1 (configuration not stated)	i
COc1cc(OC)cc(N2C(=O)c3cc4ccccc4n3CC2(C)C(=O)NC2CCCC2)c1 (configuration not stated)	i
CN(CCc1ccccn1)[C@H]1[C@@H]2OC[C@@H](O2)[C@@H](NCc2ccncc2)[C@@H]1O	i
CCOc1ccccc1OCCNC(C)Cc1ccc(OC)c(S(N)(=O)=O)c1 (configuration not stated)	?
COc1cc2c(c(OC)c1CC=C(C)C)C[C@H](c1ccc(O)c(CC=C(C)C)c1O)CO2	i
CCCN1C(=O)c2cc(C(=O)NCCCN3CCCCC3)nn2CC1(C)C(=O)NC1CCCC1 (configuration not stated)	i
CC(C)CC[C@@H](O)[C@](C)(O)[C@H]1CC[C@@]2(O)C3=CC(=O)[C@@H]4C[C@@H](O)[C@@H](O)C[C@]4(C)[C@H]3CC[C@]12C	i
Cc1cnn(C(C)c2nc(-c3ccc(C)nn3)no2)c1 (configuration not stated)	i
CC1(C(=O)NCc2ccccc2)Cn2c(cc3ccccc32)C(=O)N1CCCc1ccccc1 (configuration not stated)	i
CC(NC(=O)c1cc2n(n1)CC(C)(C(=O)NC1CCCC1)N(C)C2=O)c1ccc2c(c1)OCCO2 (configuration not stated)	i
COc1ccccc1CNC(=O)C1(C)Cn2cnc(C(=O)NC3CC3)c2C(=O)N1C1CC1 (configuration not stated)	i
Cc1ccc(Cl)cc1NC(=O)N1CCn2cccc2C1C(C)C (configuration not stated)	i
COc1cccc(NC(=O)CSc2nnc3n(C)c(=O)c4ccc(C(=O)NC5CCCC5)cc4n23)c1	i
CCOC(=O)COc1ccc2c(-c3ccccc3)cc(=O)oc2c1	i
Cc1ccc(-c2nnc3n(CCc4ccccc4)c(=O)c4ccccc4n23)cc1	i
COCC1CN(C(=O)c2sccc2C)CC12CCOCC2 (configuration not stated)	i
CC(C)CCn1c(=O)c2ccccc2n2c(SCC(=O)Nc3ccc(F)cc3)nnc12	i
Cc1ccccc1S(=O)(=O)N1CCCC2(C1)Nc1cccnc1NC2=NC1CCCC1 (configuration not stated)	?
CC(C)N(CCCNC(=O)Nc1ccc(C(C)(C)C)cc1)C[C@H]1O[C@@H](n2cc(Br)c3c(N)ncnc32)[C@H](O)[C@@H]1O	+
COc1ccccc1NC(=O)Cn1c(=O)oc2cc(S(=O)(=O)N3CC(C)CC(C)C3)ccc21 (configuration not stated)	i
N#Cc1cccc(-c2cn3c(n2)N(C(=O)c2ccccc2F)CCC3)c1	i
COc1cc2c(cc1O)C1(Cc3ccc4c(c3C1O)OCO4)[N+](C)([O-])CC2 (configuration not stated)	?
COc1ccc(OC)c(CN2C(=O)c3ccc(-c4ccco4)n3CC2(C)C(=O)NCc2ccc(Cl)cc2)c1 (configuration not stated)	i
COCCc1noc(C2Cc3ccccc3N2C(=O)Cc2ccc(OC)c(OC)c2)n1 (configuration not stated)	i
CCc1cc2c(cc3n2CC(C)(C(=O)NC2CCCCCC2)N(Cc2ccccc2C)C3=O)s1 (configuration not stated)	i
CCC1(O)CCC12CCN(C(=O)c1ccco1)CC2 (configuration not stated)	i
CC1(C(=O)NC2CCCCC2)Cn2nc(-c3ccco3)cc2C(=O)N1CCc1ccccc1 (configuration not stated)	i
CC(C)C(=O)N[C@H]1[C@H](O)[C@H](O)C[C@@H]1c1ccc(C(F)(F)F)nc1	i
C[S+](=O)([O-])N1CC2(CCCN2CC2CC2)Cc2ccccc21 (configuration not stated)	i
Clc1ccc2c(N3CCN(CCCN4CCN(c5ccnc6cc(Cl)ccc56)CC4)CC3)ccnc2c1	i
Cc1ccc(CNC(=O)C2(C)Cn3nc(C(=O)NCc4ccccn4)cc3C(=O)N2C)cc1 (configuration not stated)	i
CC1(C(=O)NCc2ccccc2)Cn2c(cc3ccccc32)C(=O)N1Cc1ccc2c(c1)OCO2 (configuration not stated)	i
CCCn1c(=O)c2cc(F)ccc2n2c(SCC(=O)Nc3ccccc3Cl)nnc12	i
CN(C)[C@H]1CCN(C(=O)Cc2cn(C)c3ccccc23)C[C@H]1CCC(=O)O	i
Cn1cnc(S(=O)(=O)N[C@H]2CCN(C(=O)c3ccco3)[C@H](C(=O)N[C@@H](Cc3cccs3)C(N)=O)C2)c1	i
CC1=C[C@@H](CNC(=O)CCC(=O)O)[C@H](C(C)C)C[C@H]1Cc1nc2ccncc2[nH]1	i

6 records picked at random from the list so far:
SMILES	Methyltransferases
CC(C)C(=O)N[C@H]1[C@H](O)[C@H](O)C[C@@H]1c1ccc(C(F)(F)F)nc1	i
Cc1ccc(CNC(=O)C2(C)Cn3nc(C(=O)NCc4ccccn4)cc3C(=O)N2C)cc1 (configuration not stated)	i
C[S+](=O)([O-])N1CC2(CCCN2CC2CC2)Cc2ccccc21 (configuration not stated)	i
Cn1cnc(S(=O)(=O)N[C@H]2CCN(C(=O)c3ccco3)[C@H](C(=O)N[C@@H](Cc3cccs3)C(N)=O)C2)c1	i
CC1(C(=O)NC2CCCCC2)Cn2nc(-c3ccco3)cc2C(=O)N1CCc1ccccc1 (configuration not stated)	i
CN(C)[C@H]1CCN(C(=O)Cc2cn(C)c3ccccc23)C[C@H]1CCC(=O)O	i

Back to the main list, starting two compounds before the break.
SMILES	Methyltransferases
Cn1cnc(S(=O)(=O)N[C@H]2CCN(C(=O)c3ccco3)[C@H](C(=O)N[C@@H](Cc3cccs3)C(N)=O)C2)c1	i
CC1=C[C@@H](CNC(=O)CCC(=O)O)[C@H](C(C)C)C[C@H]1Cc1nc2ccncc2[nH]1	i
O=C(CCc1nnc2n(Cc3ccc(Cl)cc3)c(=O)c3ccccc3n12)Nc1ccc(F)cc1	i
O=C(N[C@H]1CCN2C(=O)c3ccccc3NC(=O)[C@H]12)c1cccc(F)c1	i
O=C(CCc1nnc2n(Cc3ccc(F)cc3)c(=O)c3ccccc3n12)Nc1cccc(Cl)c1	i
C/C=C1/[C@H](O[C@@H]2O[C@H](CO)[C@@H](O)[C@H](O)[C@H]2O)OC=C(C(=O)OC)[C@H]1CC(=O)OCCc1ccc(O)c(O)c1	?
C[C@H](NC(=O)CCc1nc2ccccc2c(=O)[nH]1)c1ccccc1	?
CCNC(=O)NCCc1noc(-c2ccncc2)n1	i
CCCCN1C(=O)c2cc(C(=O)Nc3ccccc3Cl)nn2CC1(C)C(=O)NC1CCCC1 (configuration not stated)	i
Cc1cc(C)cc(NC(=O)CCc2nnc3n(Cc4ccc(F)cc4)c(=O)c4ccccc4n23)c1	i
O=C1CCCC2=C1C(c1ncccc1Br)N=C(Nc1nc3ccccc3o1)N2 (configuration not stated)	?
CCc1cccc2c3c([nH]c12)C(CC)(CC(=O)O)OCC3 (configuration not stated)	?
Cc1cnc(CN(C)Cc2cn(-c3ccccc3)nn2)[nH]1	i
Cc1cc(S(=O)(=O)N2CCN(C3CCN(Cc4ccccn4)C3=O)CC2)ccc1Cl (configuration not stated)	i
NC1(C(=O)NC(CCO)c2ccc(Cl)cc2)CCN(c2ncnc3[nH]ccc23)CC1 (configuration not stated)	?
CCCn1c(=O)c2ccc(C(=O)NC3CCCC3)cc2n2c(=O)n(CC(=O)NC(C)CC)nc12 (configuration not stated)	i
CCCCOc1ccc(C(=O)Nc2ccc(F)cc2F)cc1	i

Of the compounds above, five have a furan ring, fused or not:
SMILES	Methyltransferases
O=C(O)c1ccc(CCCc2ccc(OCCc3ccc(F)cc3)cc2)o1	?
COc1ccc(OC)c(CN2C(=O)c3ccc(-c4ccco4)n3CC2(C)C(=O)NCc2ccc(Cl)cc2)c1 (configuration not stated)	i
CCC1(O)CCC12CCN(C(=O)c1ccco1)CC2 (configuration not stated)	i
CC1(C(=O)NC2CCCCC2)Cn2nc(-c3ccco3)cc2C(=O)N1CCc1ccccc1 (configuration not stated)	i
Cn1cnc(S(=O)(=O)N[C@H]2CCN(C(=O)c3ccco3)[C@H](C(=O)N[C@@H](Cc3cccs3)C(N)=O)C2)c1	i

(list continues)
SMILES	Methyltransferases
CSc1ccc(CNC(=O)c2cc3n(n2)CC(C)(C(=O)NCCC(C)C)N(C)C3=O)cc1 (configuration not stated)	i
COc1ccc(CNC(=O)C2=NO[C@@H]3CN(c4ccccn4)C[C@H]23)cc1OC	i
CC1CCN(S(=O)(=O)c2ccc3c(ccn3CC(=O)NCCc3cccs3)c2)CC1	i
Cc1cccc(CSc2nnc3n(CCCOC(C)C)c(=O)c4cc(Cl)ccc4n23)c1	i
CCCS(=O)(=O)NCC1CN(CC2CC2)CC12CCCCC2 (configuration not stated)	i
CCC(C)NC(=O)c1ccc2c(=O)n(C)c3nn(CC(=O)c4ccc(F)cc4)c(=O)n3c2c1 (configuration not stated)	i
CC(C)Cn1c(=O)c2ccccc2n2c(=O)n(Cc3ccc(F)cc3Cl)nc12	i
CCOC(=O)c1cc2n(n1)CC(C)(C(=O)NCc1ccc(C)cc1)N(CCc1ccc(SC)cc1)C2=O (configuration not stated)	i
Clc1ccccc1C1(c2ccnc(NCCc3ccncc3)n2)CCNCC1	?
O=C(CCn1cncn1)N1CCc2ncnc(N3CC=CC3)c2CC1	i
COC(=O)c1ncn2c1C(=O)N(c1ccc(OC)c(Cl)c1)C(C)(C(=O)NC1CCCC1)C2 (configuration not stated)	i
CCOC(=O)c1cc2n(n1)CC(C)(C(=O)NCc1ccc(F)cc1)N(Cc1ccc(SC)cc1)C2=O (configuration not stated)	i
CCn1ccnc1CN1CCC(Oc2ccccc2OC)(C(=O)O)CC1	i
COc1ccc(N2CCOCC2)c2sc(NC(=O)N3CCC(C)(O)CC3)nc12	i
CC(C)N1CCN(C(=O)C2CCN(c3cnn(CC4CC4)c(=O)c3)C2)CC1 (configuration not stated)	i
CCOC(=O)c1ccc2c(c1)[C@@H]1C=CC[C@@H]1[C@H](c1cccc(Br)c1)N2	i
O=c1ccn(C2OC(CO)C(O)C2O)c(=O)[nH]1 (configuration not stated)	i
CCCn1c(=O)c2cc(Cl)ccc2n2c(SCc3ccccc3C)nnc12	i
O=C(c1ccc(F)cc1Cl)N1CCN(C(=O)c2nnn3c2COC(c2ccccc2)C3)CC1 (configuration not stated)	i
COc1ccc(-c2cc3n(n2)CC(C)(C(=O)NCc2ccccc2)N(CCc2cccs2)C3=O)cc1 (configuration not stated)	i
CCOc1ccc(N2C(=O)Cn3cccc3C2C(=O)NC2CCCC(C)C2C)cc1 (configuration not stated)	i
CCCCN1CCN(C(=O)c2cn3ccnc(-c4ccccc4)c3n2)CC1	i
Cc1ccc(S(=O)(=O)c2nnn3c2nc(NC2CCCC2)c2ccccc23)cc1C	i
CCOC(=O)c1ccc2c(c1)[C@@H]1C=CC[C@@H]1[C@H](c1ccccc1C(F)(F)F)N2	i
COc1ccc(NC(=O)Cn2c(=O)oc3cc(S(=O)(=O)N4CCCC4)ccc32)c(OC)c1	i
CC(C)CCNC(=O)C1c2c(n(C)c3ccccc23)SCC(=O)N1Cc1ccc(Cl)cc1 (configuration not stated)	i
CCOC(=O)c1cccc(NS(=O)(=O)c2ccc3c(c2)n(C)c(=O)n3C)c1	i
CC(C)(C)c1ccc(C(=O)Nc2cc(Cl)c(Br)cc2C(=O)O)cc1	+
Cc1cc(C)cc(N2C(=O)c3cc4sccc4n3CC2(C)C(=O)NC2CCCC(C)C2C)c1 (configuration not stated)	i
O=C(NCCCCCCNC(=O)c1cccnc1)c1cccnc1	i
COc1ccc(-c2cc3n(n2)CC(C)(C(=O)NCc2ccccc2OC)N(CCc2ccccc2)C3=O)cc1 (configuration not stated)	i
CCC(C)NC(=O)Cn1nc2n(C(C)C)c(=O)c3ccc(C(=O)NC4CCCC4)cc3n2c1=O (configuration not stated)	i

Not all compounds are listed, so the mix of outcomes need not match the whole.
